Screens from PubChem BioAssay.
AID504770: growth inhibition of E. coli YBA685, primary screen, V. cholerae RctB inhibitors; E. coli YBA685 rctB-dependent plasmid, OD600 growth, 3 h; stronger effect = lower value; z-score (test concentration not listed); actives 0.27% (n = 130,000);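 active = z-score under -2 on both plates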;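 note: wells of about 30 µL received 100 nL stock; score is relative to mean and SD of the test wells; the first replicate is given; strong numbers were not always called active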
CapD inh: Bacillus anthracis CapD inhibitors, primary screen, biochemical, fluorescence intensity; purified CapD enzyme, fluorescence intensity read-out; stronger effect = lower value; some hits fall short of the stated cut; z-score (concentration not given with the values); actives 0.23% (n = 140,000); AID 492967, 2010;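 active = z-score under -4 in either of two replicates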;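 note: stock transfer was 100 nL into about 40 µL; score is relative to mean and spread of the plate; one replicate is shown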
Starred values were filed as active, the others as inactive; · = no result given.

Structure	CapD inh	AID504770
Cc1ccc(S(=O)(=O)c2nc(NC3CCS(=O)(=O)C3)sc2Cl)cc1 (stereo not drawn)	0.27	-0.4
CCOC(=O)c1[nH]c(C)c(C(=O)N(CC)C2CCCCC2)c1C	·	0.55
Cc1cccc(OCC(O)CN2CC(C)CC(C)C2)c1 (stereo not drawn)	-0.3	0.1
CN(N=O)C(=O)N[C@@H]1[C@@H](O)[C@H](O)[C@@H](CO)O[C@@H]1O	-0.21	0.7
COc1ccc(OC)c(/C=C/C(=O)N(Cc2cccs2)Cc2cccs2)c1	·	1.3
CCCC1=C(C(=O)OCC)C(c2ccccc2OC)NC(=O)N1 (stereo not drawn)	-0.27	2.8
Nc1cc(-c2ccc(Br)cc2)no1	0.75	-0.15
O=C(CN1CCC(n2nnc3ccccc32)CC1)N(C1CCCCC1)C1CCCCC1	·	0.35
Cc1ccc(/C=N/NC(=O)c2ccc(OC(F)(F)F)cc2)cc1	0.015	·
COc1ccc(/C=N/n2ncc3ccccc32)cc1	·	1
NC(=O)c1c(NC(=O)C2=COCCO2)sc2c1CCCC2	1.3	-0.9
CN(C)C(=S)Nc1nc2ccccc2s1	-3.6	1.8
N#C/C(=C\c1ccc[nH]1)C(=O)NCCc1ccccn1	-2	0.2
Cc1ccc(S(=O)(=O)NC(=O)C(C)O)c(C)c1 (stereo not drawn)	0.18	-0.15
COc1ccc(NC(=O)C(C)Sc2nc(C)cc(=O)[nH]2)cc1 (stereo not drawn)	·	1.8
Oc1cccc(Nc2nc(-c3ccc(F)cc3F)cs2)c1	-0.68	0.85
CN1CCC2(CC1)C(C#N)=C(N)Oc1n[nH]c(C(=O)OC(C)(C)C)c12	0.095	-1.2
Cc1cc(C)nc(Oc2cccnc2CN(C)c2ccccc2)n1	-0.35	·
CC1(C)CC(=O)C2=C(C1)C(c1ccc(-c3cccc([N+](=O)[O-])c3)o1)Nc1ccc3ccccc3c12 (stereo not drawn)	-0.045	·
CC(NS(=O)(=O)/C=C/c1ccccc1)C(=O)N1CCN(c2ccccc2Cl)CC1 (stereo not drawn)	·	0.6
Cc1cc(C)n(-c2nnc(C)n2/N=C/c2cc(Br)ccc2OCc2ccccc2)n1	0.23	0.55
Cc1cc(C)c(S(=O)(=O)NCC23C=CC(O2)C2C(=O)N(Cc4ccccc4)C(=O)C23)c(C)c1 (stereo not drawn)	0.41	·
N#CCCOc1ccc2ccccc2c1	0.43	·
N/C(=N\OC(=O)c1ccc([N+](=O)[O-])cc1)c1cccc(-n2cccc2)c1	0.22	·
CCc1cccc(-n2c(-c3ccco3)nc3c(cnn3-c3ccccc3Cl)c2=O)c1	15	-0.2
NC(=O)c1ccc(-c2ccccc2F)cc1	-0.18	·
CCCc1c(OCc2ccccc2)ccc(C(C)=O)c1O	-0.36	·
CCOC(=O)C1=C(CSc2nc(C)c(C)c(C)c2C#N)OC(N)=C(C#N)C1c1ccccc1 (stereo not drawn)	-0.28	·
COc1ccccc1Nc1cc(N2CCOCC2)c2nonc2c1[N+](=O)[O-]	-0.17	·
CCc1ccc(S(=O)(=O)NCCN2CCN(S(=O)(=O)c3ccc(CC)cc3)CC2)cc1	·	-0.4
Cc1nc(-c2cccc(-n3cccc3)c2)sc1C(=O)NNC(=O)CC(c1ccccc1)(c1ccccc1)c1ccccc1	1.1	·
CCC(C)n1nc(NC(C)=O)c2cc3cc(C)ccc3nc21 (stereo not drawn)	·	0.1
CC1(C)CC(=O)C2=C(C1)OC1=C(C(=O)CC(C)(C)C1)C2c1ccc(F)cc1F	-0.33	·
CCc1ccc(-n2c(N3CCC(C)CC3)nc3ccccc3c2=O)cc1	1.8	-0.9
Cc1ccc(-c2cc(C(=O)Nc3ccccc3C(N)=O)c3ccccc3n2)cc1C	1.3	·
COc1ccc2[nH]c(O)c(N=O)c2c1	0.2	0.1
CCn1c(SCC(=O)Nc2ccnn2C2CCCC2)nc2cc(S(N)(=O)=O)ccc21	·	-0.55
O=C1CCCC(O)=C1N=Nc1ccc(S(=O)(=O)N2CCOCC2)cc1	·	1.4
S=C1SCN(C2CCCCC2)CN1Cc1ccccc1	·	-0.2
COC(=O)C1C(c2ccc(OC)cc2)C(C(=O)OC)S(=O)(=O)C(CCN2CCOCC2)S1(=O)=O (stereo not drawn)	-0.075	·
CCN(c1ccc(OC)cc1)S(=O)(=O)c1ccc2c(c1)OCC(C(=O)N1CCCC1)O2 (stereo not drawn)	-0.01	-0.4
COc1cc(CO)ccc1OCc1ccccc1C	0.23	1.2
CCOC(=O)c1sc(/S(C)=N/S(=O)(=O)c2cccc(Cl)c2)c2c1CCC=C2 (stereo not drawn)	1.3	-1.1
O=C(O)Cc1ccccc1C(=O)O	·	-0.65
CCOc1cc(OCC)c2c3c(c(=O)oc2c1)CCC3	59	0
Cc1ccc(C(=O)Nc2nncs2)cc1	·	-0.55
CC1CCN(CCn2c(=S)[nH]c3ccccc3c2=O)CC1	-0.62	-0.35
CCC(Sc1ncccc1C(=O)O)C(=O)N1CCOCC1 (stereo not drawn)	0.9	1.2
Cc1ccc(N2C(=O)CC(Cc3ccccc3)C2=O)cc1 (stereo not drawn)	-0.22	0.35
CC(=O)C12c3ccccc3C(c3ccccc31)C1C(=O)N(c3ccc(Cl)cc3[N+](=O)[O-])C(=O)C12 (stereo not drawn)	-0.35	·
CCOC(=O)c1c(COC(C)=O)n(C)c2cc(Br)c(OC)cc12	-0.035	2
O=C1CC(c2nnc(Cc3ccc4c(c3)OCO4)o2)CN1c1ccccc1 (stereo not drawn)	0.03	-1
COc1ccc(NC(=O)CCCn2c(=S)[nH]c3ccccc3c2=O)cc1	0.02	-0.05
O=C1Cc2cc(C(=O)CSc3nnc(-c4cccs4)n3CC3CCCO3)ccc2N1 (stereo not drawn)	·	0.75
CN1C(C(=O)N2CCN(C(=O)c3ccco3)CC2)=CC(c2ccc(F)cc2)=NS1(=O)=O	1	-1.9
CC(C)(C)NC(=O)NCc1nc(-c2ccccc2)no1	0.59	-0.25
CCC(C)NC(=O)CSc1nc2ccccc2c2nc3ccccc3n12 (stereo not drawn)	0.35	-0.05
Cc1c(NC(=O)CSc2nc3ccc(N4C(=O)c5ccccc5C4=O)cc3s2)c(=O)n(-c2ccccc2)n1C	-0.44	·
COC(=O)C(Cc1c[nH]c2ccccc12)NC(=O)c1cc(C)no1 (stereo not drawn)	-0.16	·
CC1(C)CC(=O)C(C2C3=C(CC(C)(C)CC3=O)OC3=C2C(=O)CC(C)(C)C3)=C(O)C1	·	-2.2

A different layout for part of the listing above:
COc1ccc(NC(=O)CCCn2c(=S)[nH]c3ccccc3c2=O)cc1
  CapD inh: 0.02	AID504770: -0.05

O=C1Cc2cc(C(=O)CSc3nnc(-c4cccs4)n3CC3CCCO3)ccc2N1 (stereo not drawn)
  CapD inh: ·	AID504770: 0.75

3 entries drawn at random from the list so far, as already listed:
Structure	CapD inh	AID504770
CC(=O)C12c3ccccc3C(c3ccccc31)C1C(=O)N(c3ccc(Cl)cc3[N+](=O)[O-])C(=O)C12 (stereo not drawn)	-0.35	·
Cc1ccc(N2C(=O)CC(Cc3ccccc3)C2=O)cc1 (stereo not drawn)	-0.22	0.35
CCC(C)NC(=O)CSc1nc2ccccc2c2nc3ccccc3n12 (stereo not drawn)	0.35	-0.05

Back to the main list, starting three compounds before the break.
Structure	CapD inh	AID504770
Cc1c(NC(=O)CSc2nc3ccc(N4C(=O)c5ccccc5C4=O)cc3s2)c(=O)n(-c2ccccc2)n1C	-0.44	·
COC(=O)C(Cc1c[nH]c2ccccc12)NC(=O)c1cc(C)no1 (stereo not drawn)	-0.16	·
CC1(C)CC(=O)C(C2C3=C(CC(C)(C)CC3=O)OC3=C2C(=O)CC(C)(C)C3)=C(O)C1	·	-2.2
CCOC(=O)c1c(CN2CCN(c3ccccc3)CC2)n(C)c2ccc(OC)c(S(=O)(=O)c3ccccc3)c12	1.3	·
Cc1nnc(NC(=O)CSc2nnc(CNC(=O)c3ccco3)n2-c2ccc([N+](=O)[O-])cc2)s1	-0.38	·
CN(C(=O)c1cc2sccc2n1Cc1ccc(F)cc1)C1CCCCC1	·	2
COc1cccc(-c2nc3sc4c(c3c(=O)n2CC(=O)N2CCN(c3ccc(F)cc3)CC2)CCCC4)c1	-0.38	·
CC1SC(=S)N(c2ccccc2)C1=O (stereo not drawn)	-0.17	0.65
Cc1cc(N)nn1C(=O)CSc1nc2ccccc2c(=O)n1CC1CCC(C(=O)NCCc2ccccc2)CC1 (stereo not drawn)	-1	·
CCOC(=O)c1cccc(Nc2nc(C)cc(C)n2)c1	9.5	0
CC1CN(C(=O)C(c2ccccc2)c2ccccc2)CC(C)O1 (stereo not drawn)	-0.96	0.15
CC(=O)c1ccc(N2C(=O)C3C4c5ccccc5C(C)(c5ccccc54)C3C2=O)cc1 (stereo not drawn)	-1	·
Cc1noc(C)c1COC(=O)c1cc(S(=O)(=O)N(C)c2ccc(F)cc2)ccc1Cl	·	1.1
Cc1ccc(-c2noc(CCC(=O)N3CCCCC3c3nc4ccccc4s3)n2)cc1 (stereo not drawn)	·	0.1
COc1nc(N(C)C)nc(N2C(=N)N(c3ccc(Cl)c(Cl)c3)C(=O)C2C)n1 (stereo not drawn)	-0.26	·
COc1ccc(-c2cn3cccnc3n2)cc1NC(C)=O	35	-1.1
CSc1sc(C(=O)NNC(=O)OCc2ccc(C#CC(C)(C)O)cc2)cc1-c1nc(C)cs1	0.8	·
O=C1CSC2=NCN(c3ccc(-c4ccccc4)cc3)CN12	·	-0.15
CCOCCOC(=O)C(C)Oc1ccc2c(=O)c(Oc3ccc(C(C)(C)C)cc3)coc2c1 (stereo not drawn)	-0.37	·
CCCCN1C(SCC(=O)NCCC)=NS(=O)(=O)c2ccccc21	-1.3	-0.95
CSc1ccc(CN(C)CC(=O)NC(=O)NC2CCCCC2)cc1	·	0.45
O=C(O)c1[nH]c2ccccc2c1CC(=O)N1CCCCC1	0.12	-1.5
O=S(=O)(NCc1ccc2c(c1)OCO2)c1cccc2nsnc12	·	0.75
COc1cccc2sc(=NC(=O)c3ccccc3)n(C)c12	-0.62	2.3
COC(=O)c1ccc(NC(=O)Cc2ccc(F)cc2)cc1	0.075	-0.05
S=c1[nH]nc(CSc2nc(-c3ccccc3)cn2-c2ccccc2)n1-c1ccccc1	-0.54	-0.9
C=CCN(C(=O)c1cc2c(-c3ccc(OC)c(OC)c3)nn(C)c2s1)c1ccccc1	1.7	-1.1
Cc1noc(C)c1COC(=O)/C=C/c1ccco1	·	0.85
CCN[C@H]1C[C@H](C)S(=O)(=O)c2sc(S(N)(=O)=O)cc21	-0.59	·
Clc1ccc(-c2cc(-n3cnc4ccccc43)n[nH]2)cc1	-0.07	0.05
COCCn1c(C)cc(/C=C(\C#N)C(=O)OCCN2C(=O)c3ccccc3C2=O)c1C	·	-0.8
CCc1nnsc1C(=O)Nc1cc(OC)ccc1OC	·	-0.95
COCC(C)n1c(C)cc(C2=NNC(=Nc3ccc(F)cc3F)SC2)c1C (stereo not drawn)	·	-0.3
O=C(NCCS(=O)(=O)c1ccc(Br)cc1)c1ccc(F)cc1	-0.43	·
O=C(c1cccnc1)N1CCN(C/C=C/c2ccccc2)CC1	·	2.2
CC1(C)Cc2c(sc3ncn4nc(CSc5nc6ccccc6o5)nc4c23)C(C)(C)N1	·	-0.6
CCOC(=O)C1=CS/C(=C2/C(=S)C(C)(C)Nc3ccc(C)cc32)S1	15	·
O=C(CCCc1c[nH]c2ccccc12)NC1=NCCS1	0.37	-0.65
S=C=NC12CC3CC(CC(C3)C1)C2	·	-0.55
CC(=O)NCc1ccc(C(=O)CSc2nnc(-c3ccncc3)n2Cc2ccccc2)o1	·	0.55
CC(OC(=O)c1c(Cl)cccc1Cl)C(=O)NC1CC1 (stereo not drawn)	·	0.1
COc1ccc(-c2cn3c(C)c(C(=O)Nc4ccc5c(c4)OCCO5)sc3n2)cc1	0.56	0.35
CC1=NN(c2ccc(C)cc2C)C(=O)C12C(c1ccccc1Cl)C21C(=O)N(c2ccc(Cl)cc2C)N=C1C (stereo not drawn)	-0.32	·
CCCS(=O)(=O)/C(C#N)=C/Nc1ncccn1	0.53	·
CCc1ccc(C(=O)N(Cc2ccccc2)C(C)C)cc1	0.67	0.15
CCOC(=O)c1c(NC(=O)C2COc3ccccc3O2)sc(C)c1C (stereo not drawn)	1.8	·
Cn1c(N2C(=O)c3cccc4cccc(c34)C2=O)nc2ccccc21	-0.14	1.5
CCOC(=O)c1c(NC(C)=O)nc(SC)n1Cc1ccco1	-11*	-1.2
COc1ccc(CC(=O)Nc2ccc3c(c2)OCO3)cc1S(=O)(=O)N1CCOCC1	·	-0.6
N#CCCN1CCN(Cc2cc(-c3ccccc3)ccc2O)CC1	0	-0.75
O=C(N/N=C/c1c[nH]c2ccccc12)c1ccccc1[N+](=O)[O-]	-0.52	·
COc1ccc(S(=O)(=O)NC2CCN(Cc3cc(OC)c4c(c3)OCO4)C2)cc1 (stereo not drawn)	-1.2	·
Cc1ccc(C2C(NC(=O)c3ccc(F)cc3)C([O-])=N/[N+]2=C\c2ccc(N(C)C)cc2)cc1 (stereo not drawn)	0.25	-0.25
CCOC(=O)COc1c(Cl)cc(/C=C2/N=C(c3ccco3)OC2=O)cc1OCC	·	-0.05
CCOc1ccc(S(=O)(=O)n2cccn2)cc1	·	-0.1
CC(C)N(C(=O)NC(=O)c1csnn1)C(C)C	0.11	-0.1
CNc1ccccc1C(C)(C)c1cc(-c2cccnc2)n[nH]1	-0.68	-0.4
CCCCCCc1ccc(C(=O)NNC(=O)/C=C/c2ccco2)cc1	-0.36	·
